Methyltransferases: Primary Screen for Target Class Profiling of Small Molecule Inhibitors of Methyltransferases; calls only at 40 µM; AID 1745853, 2022; 3.9% of 25,000 active; purified enzyme, MTase-Glo SAH luminescence; stronger effect = lower value; active = -50% or lower on at least one of six enzymes; inconclusive = the cases between; inactive = as a rule above -30% on all six;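 also: enzymes were COMT GAMT GNMT HNMT NNMT and PNMT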
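Each enzyme was assayed with SAM and its substrate. SAH formation detected by MTase-Glo luminescence; single-point 40 uM screen[…].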
Calls only; i = inactive; u = inconclusive; + = active, no number. % is scaled to controls: 0 for no effect and ±100 for the full control effect.

SMILES | Methyltransferases
CN1C[C@H](CNC(=O)OCc2ccccc2)C[C@@H]2c3cccc4c3c(cn4C)C[C@H]21 | u
O=C1N(Cc2cccnc2)C[C@H]2CN(C3CCC3)CCN12 | i
CC(C)=CCC[C@]1(C)C=Cc2c(O)c3c(c(CC=C(C)C)c2O1)O[C@]12C(=C[C@@H]4CC1C(C)(C)O[C@@]2(C/C=C(/C)C(=O)O)C4=O)C3=O | u
CCC1c2cccn2-c2ccccc2CN1C(=O)Nc1ccc(F)cc1F (stereo not given) | i
CO[C@@H]1[C@H](O)[C@@H](O[C@@H]2C[C@H]3CC[C@@H]4C(CC[C@]5(C)[C@@H](C6=CC(=O)OC6)CC[C@]45O)[C@@]3(C)[C@H](O)C2)O[C@H](C)[C@@H]1O (stereo not given in full) | i
N#Cc1cccc(-c2ccc3n(c2=O)C[C@H]2C[C@@H]3CN(C(=O)c3ccc(F)cc3)C2)c1 | i
Cn1nc(-c2cccs2)cc1[C@H]1CN2CC[C@H]1C[C@@H]2CNS(C)(=O)=O | i
O=C(Nc1ccc2n(c1=O)C[C@H]1C[C@@H]2CN(c2ncccn2)C1)c1ccccc1 | i
CSCC(=O)Nc1ccc2n(c1=O)C[C@H]1C[C@@H]2CN(C(=O)CSCC(=O)O)C1 | i
CCc1ccc(C2c3cccn3-c3ccccc3CN2C(=O)Nc2cccc(SC)c2)cc1 (stereo not given) | i
CCN(C1CCOCC1)C1CNC1 | i
COC1=CC(=O)O[C@@H](CCc2ccccc2)C1 | i
Cc1c2ccncc2c(C)c2c1[nH]c1ccccc12 | +
CC(=O)OC1CC(O)C(C)(C)C2CC(OC(C)=O)C3(C)C(CCC4(C)C(c5ccoc5)C(=O)C5OC543)C12C (stereo not given) | i
C=C1[C@@H](C)[C@H]2[C@H](Cc3ccccc3)NC(=O)[C@]23OC(=O)/C=C/C(=O)CCC[C@@H](C)C/C=C/[C@H]3[C@@H]1O | i
COc1ccc(OC)c(NC(=O)N2Cc3ccccc3-n3cccc3C2c2cccs2)c1 (stereo not given) | i
CCOC(=O)CNC(=O)N1Cc2ccccc2-n2cccc2C1c1cc(F)cc(F)c1 (stereo not given) | i
COc1cccc(NCC(F)Cn2c3ccc(Br)cc3c3cc(Br)ccc32)c1 (stereo not given) | u
COc1ccccc1-c1cc([C@H]2CN3CC[C@H]2C[C@@H]3CNS(=O)(=O)c2ccccc2)n(C)n1 | i
COc1ccc(NC(=O)N2Cc3ccccc3-n3cccc3C2c2cccc(C)c2)c(OC)c1 (stereo not given) | i

Exported with each value named: entries from further up.
C=C1[C@@H](C)[C@H]2[C@H](Cc3ccccc3)NC(=O)[C@]23OC(=O)/C=C/C(=O)CCC[C@@H](C)C/C=C/[C@H]3[C@@H]1O
  Methyltransferases: i
COC1=CC(=O)O[C@@H](CCc2ccccc2)C1
  Methyltransferases: i
CCOC(=O)CNC(=O)N1Cc2ccccc2-n2cccc2C1c1cc(F)cc(F)c1 (stereo not given)
  Methyltransferases: i
COc1ccccc1-c1cc([C@H]2CN3CC[C@H]2C[C@@H]3CNS(=O)(=O)c2ccccc2)n(C)n1
  Methyltransferases: i

(further entries)
SMILES | Methyltransferases
CC(C)C1c2cccn2-c2ccccc2CN1C(=O)Nc1ccccc1Br (stereo not given) | i
CCOC(=O)Cc1ccc(NC(=O)N2Cc3ccccc3-n3cccc3C2CC)cc1 (stereo not given) | i
CCC1c2cccn2-c2ccccc2CN1C(=O)Nc1ccc(C)cc1C (stereo not given) | i
C[N+]1(C)CCOC(O)(c2ccc(-c3ccc(C4(O)C[N+](C)(C)CCO4)cc3)cc2)C1 (stereo not given) | i
Cc1ccc(NC(=O)N2Cc3ccccc3-n3cccc3C2c2cccs2)cc1 (stereo not given) | i
CN(C)c1ccc(C2c3cccn3-c3ccccc3CN2C(=O)Nc2cccc(Cl)c2)cc1 (stereo not given) | i
O=C(NCc1ccccc1)N1Cc2ccccc2-n2cccc2C1c1cc(F)cc(F)c1 (stereo not given) | i
Cc1ccc(C)c(NC(=O)N2Cc3ccccc3-n3cccc3C2c2ccc(N(C)C)cc2)c1 (stereo not given) | i
O=C(NCC1CCOCC1)c1cnc(Nc2ccc(Cl)cc2Cl)nc1C(F)(F)F | u
CCN(CC)C(=O)c1ccc(C2=CC3(CCNCC3)Oc3cccc(O)c32)cc1 | i
CO[C@H]1[C@H](O)[C@H](O[C@H]2CC[C@]3(C=O)C4CC[C@]5(C)[C@H](C6=CC(=O)OC6)CC[C@]5(O)C4CC[C@@H]3C2)O[C@@H](C)[C@@H]1O (stereo not given in full) | i
C=CC(C)(C)c1[nH]c2cccc3c2c1C[C@@H]1[C@@H]3[C@@H](OC(C)=O)[C@H](C)CN1C | i
CO[C@H]1[C@@H](O)[C@@H](C)O[C@@H](O[C@@H]2C=C3C(OC(C)=O)CC4(O)C(CC[C@]5(C)[C@@H](C6=CC(=O)OC6)CC[C@]45O)[C@@]3(C)CC2)[C@@H]1O (stereo not given in full) | i
Cc1ccc(NC(=O)N2Cc3ccccc3-n3cccc3C2C(C)C)cc1 (stereo not given) | i
C[C@@H]1C[C@@H](O)[C@]2(O)O[C@@H]3C[C@@]4(C=O)C(CC[C@@H]5C4CC[C@]4(C)[C@@H](C6=CC(=O)OC6)CC[C@]54O)C[C@H]3O[C@@H]2O1 (stereo not given in full) | i
C[C@@H](CN1CCC2(CC1)C(=O)NCN2c1cccc(F)c1)NC(=O)c1ccc(Br)cc1 | i
CSCC(=O)Nc1ccc(=O)n2c1[C@@H]1C[C@@H](CN(C(=O)NC3CCCCC3)C1)C2 | i
COc1ccc(C2c3cccn3-c3ccccc3CN2C(=O)CCC(=O)NC2CCCCC2)cc1 (stereo not given) | i
CCc1ccccc1NC(=O)N1Cc2ccccc2-n2cccc2C1c1ccccc1 (stereo not given) | i
COc1ccc(C2c3cccn3-c3ccccc3CN2C(=O)Nc2ccccc2OC)cc1 (stereo not given) | i
Cc1[nH]c2ccc(O)cc2c1CCN | i
CN1[C@H]2C[C@H](OC(=O)[C@H](CO)c3ccccc3)C[C@@H]1[C@@H](O)C2 | i
CNCCc1c[nH]c2ccc(O)cc12 | i
CCc1ccc(C2c3cccn3-c3ccccc3CN2C(=O)Nc2ccc(OC)cc2OC)cc1 (stereo not given) | i
Cc1cccc(NC(=O)N2Cc3ccccc3-n3cccc3C2c2cccc(Cl)c2)c1C (stereo not given) | i
COc1ccc(C2c3cccn3-c3ccccc3CN2C(=O)Nc2ccc(C)cc2)cc1OC (stereo not given) | i
CCOC(=O)NC(C)(C)Cc1ccc(Cl)cc1 | i
CCCN(CCC)[C@@H]1CCc2ccc(O)cc2C1 | i
O=C(Nc1cccc(Br)c1)N1Cc2ccccc2-n2cccc2C1c1cccs1 (stereo not given) | i
C[C@]12CC[C@H](O)C[C@@H]1CC[C@@H]1[C@@H]2CC[C@]2(C)[C@@H](C3=CC(=O)OC3)CC[C@]12O | i
CN(C)c1ccc(C2c3cccn3-c3ccccc3CN2C(=O)Nc2ccc(Cl)cc2)cc1 (stereo not given) | i
CC1c2cccn2-c2ccccc2CN1C(=O)Nc1cccc2c1CCCC2 (stereo not given) | i
COC(=O)CCNC(=O)N1Cc2ccccc2-n2cccc2C1c1ccc(OC)c(OC)c1 (stereo not given) | i
O=C(Nc1ccccc1F)N1Cc2ccccc2-n2cccc2C1c1cc(F)cc(F)c1 (stereo not given) | i
COc1ccc(-c2ccc3n(c2=O)C[C@H]2C[C@@H]3CN(S(C)(=O)=O)C2)cc1 | i
CC(C)N1CC2CCC(C1)N2S(=O)(=O)C1CC1 | i
O=C(Oc1ccc([N+](=O)[O-])cc1)N1CCN(Cc2cccc(Oc3ccccc3)c2)CC1 | i
C=C(C)[C@@H]1[C@H]2OC(=O)[C@H]1[C@]1(O)C[C@H]3O[C@]34C(=O)O[C@H]2[C@]14C | i
CN1C(=O)CN=C(c2ccccc2Cl)c2cc(Cl)ccc21 | i
COc1ccc(OC)c(NC(=O)N2Cc3ccccc3-n3cccc3C2c2cccc(C)c2)c1 (stereo not given) | i
COC1CC(O[C@H]2CC[C@]3(C)C4CC[C@]5(C)[C@@H](C6=CC(=O)OC6)[C@@H](OC(C)=O)C[C@]5(O)C4CC[C@@H]3C2)OC(C)C1O[C@@H]1O[C@H](CO)[C@@H](O)[C@H](O)[C@H]1O (stereo not given in full) | i
CS[C@]1(CO)C(=O)N2[C@H]3C(=CC=C[C@@H]3O)C[C@@]2(SC)C(=O)N1C | i
CN(C)c1ccc(C2c3cccn3-c3ccccc3CN2C(=O)NC2CCCC2)cc1 (stereo not given) | i
CCC(C)(O)C1(C(=O)O)COC(=O)C1 (stereo not given) | i
CCC1c2cccn2-c2ccccc2CN1C(=O)Nc1cc(C)ccc1C (stereo not given) | i
Fc1ccc(C(OCCN2CCN(CCCc3ccccc3)CC2)c2ccc(F)cc2)cc1 | i
CCCCCn1cc(C(=O)Cc2ccccc2OC)c2ccccc21 | i
Cc1ccc(C2c3cccn3-c3ccccc3CN2C(=O)Nc2ccc(C)c(C)c2)cc1 (stereo not given) | i
O=C(Nc1ccccc1Br)N1Cc2ccccc2-n2cccc2C1c1ccccc1 (stereo not given) | i
Cc1ccc(CNC(=O)N2Cc3ccccc3-n3cccc3C2c2ccc(N(C)C)cc2)cc1 (stereo not given) | i

The list continues:
SMILES | Methyltransferases
CCn1c(CO)nnc1C1CC(NC(=O)c2cnn(Cc3ccccc3)c2)C1 (stereo not given) | i
COc1ccc(C2c3cccn3-c3ccccc3CN2C(=O)NC2CCCC2)cc1OC (stereo not given) | i
CCOc1ccc(NC(=O)N2Cc3c(C)cc(C)nc3-n3cccc3C2c2ccc(F)cc2)cc1 (stereo not given) | i
CCOc1ccc(C2c3cccn3-c3ccccc3CN2C(=O)Nc2cccc(SC)c2)cc1 (stereo not given) | i
COC(=O)c1cccc(NC(=O)N2Cc3ccccc3-n3cccc3C2c2ccc(OC)c(OC)c2)c1 (stereo not given) | i
COc1ccc(NC(=O)N2Cc3ccccc3-n3cccc3C2c2ccc(F)cc2)cc1 (stereo not given) | i
CN(C)c1ccc(C2c3cccn3-c3ccccc3CN2C(=O)NCc2ccc(F)cc2)cc1 (stereo not given) | i
COc1ccc(C)cc1NC(=O)N1Cc2ccccc2-n2cccc2C1c1ccc(F)cc1 (stereo not given) | i
CC(C)CCNC(=O)N1Cc2ccccc2-n2cccc2C1c1ccc(F)cc1 (stereo not given) | i
COc1ccc(NC(=O)N2Cc3ccccc3-n3cccc3C2c2cccc(C)c2)cc1 (stereo not given) | i
N#CC(O[C@@H]1O[C@H](CO[C@@H]2O[C@H](CO)[C@@H](O)[C@H](O)[C@H]2O)[C@@H](O)[C@H](O)[C@H]1O)c1ccccc1 (stereo not given in full) | u
C=C1[C@@H](O)[C@]2(O)OC[C@]34C2[C@]2(C)C(C[C@H]3OC(=O)[C@H](O)[C@@]14O)C(C)=CC(=O)[C@H]2O (stereo not given in full) | i
CCCOC(=O)Cc1ccc(OCC(=O)N(CC)CC)c(OC)c1 | i
COCCCNC(=O)N1Cc2ccccc2-n2cccc2C1c1cccc(C)c1 (stereo not given) | i
CC(O)(CS(=O)(=O)c1ccc(F)cc1)C(=O)Nc1ccc(C#N)c(C(F)(F)F)c1 (stereo not given) | u
CCCCCCn1c(=O)c(C(=O)Nc2ccc(C(=O)OCCC)cc2)c(O)c2ccccc21 | i
Cc1c(Cl)cccc1NC(=O)N1Cc2ccccc2-n2cccc2C1c1ccc(N(C)C)cc1 (stereo not given) | i
COC(=O)c1cccc(NC(=O)N2Cc3ccccc3-n3cccc3C2c2ccccc2Cl)c1 (stereo not given) | i
C=C1C(=O)OC2/C=C(\COO)CC/C=C(\COC(C)=O)CC(OC(=O)C(C)CC)C12 (stereo not given) | u
CC(C)NC(=O)NC[C@H]1C[C@@H]2CCN1C[C@@H]2CN1CCC(Cc2ccccc2)CC1 | i
CC(C)CCNC(=O)N1Cc2ccccc2-n2cccc2C1c1ccccc1 (stereo not given) | i
Cn1nc(-c2ccc(F)cc2)cc1[C@H]1CN2CC[C@H]1C[C@@H]2CNC(=O)c1cccs1 | i
CC(=O)[C@H]1CC[C@H]2[C@@H]3CC[C@H]4C[C@](C)(O)CC[C@]4(C)[C@H]3CC[C@]12C | i
CCC1c2cccn2-c2ccccc2CN1C(=O)Nc1ccccc1C(F)(F)F (stereo not given) | i
O[C@@H]1CNC2Cc3c([nH]c4ccccc34)C1C2 (stereo not given in full) | i
C[N+](C)(C)CC#CCN1CCCC1=O | i
C[C@H](N)Cc1cccc(C(F)(F)F)c1 | i
COc1ccc(C2c3cccn3-c3ccccc3CN2C(=O)Nc2ccc3c(c2)OCCO3)cc1OC (stereo not given) | i
CCOP(=O)(OCC)Oc1ccc2c(C)cc(=O)oc2c1 | i
Cc1cccc(NC(=O)N2Cc3ccccc3-n3cccc3C2c2ccc(N(C)C)cc2)c1C (stereo not given) | i
c1ccc(-c2ncc3c(n2)C[C@@H]2CC[C@H]3N2)cc1 | i
CCC1c2cccn2-c2ccccc2CN1C(=O)Nc1cccc(C(F)(F)F)c1 (stereo not given) | i
C[C@@](O)(COc1ccc(C#N)cc1)C(=O)Nc1ccc(C#N)c(C(F)(F)F)c1 | i
CCOc1ccccc1NC(=O)N1Cc2ccccc2-n2cccc2C1c1ccccc1 (stereo not given) | i
CCCNC(=O)N1Cc2ccccc2-n2cccc2C1c1ccc(CC)cc1 (stereo not given) | i
COc1cc(OC)c(NC(=O)N2Cc3ccccc3-n3cccc3C2c2ccc(F)cc2)cc1Cl (stereo not given) | i

This is a subset; rates above refer to the full screens.
